PINK1 modulator: A Quantitative High throughput Screen to Identify Chemical Modulators of PINK1 Expression; PINK1 immunofluorescence, high-content cytometry, 24 h; Potency, µM (titrated, usually from 76.6 µM), for inactives: at the highest dose activation (PINK1 increase), most hits filed as activators; 410,000 compounds, 0.2% hits; AID 624263, 2012; active = well fitted activation curve with a large enough effect; inconclusive = small, poorly fitted or top-dose-only effect; inactive = flat fitted curve, though single readings scatter; cell line not stated here;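 further: potency means the concentration at half of the fitted maximal effect; % of control where 0% means no effect; nearly all actives have a fitted effect of over 65% in size; a mitochondrial uncoupler was the plate control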
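Readout is PINK1 immunofluorescence, quantified alongside mitochondrial, cell and nuclear markers by laser-scanning microplate cytometry. Cells from a stable line were exposed to compound titrations (5 concentrations) for 24 hours, with CCCP controls.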
gsp antagonist: qHTS for Antagonists of gsp, the Etiologic Mutation Responsible for Fibrous Dysplasia/McCune-Albright Syndrome: qHTS. Potency, µM (series often up to 76.9 µM), without a hit: top-dose activity change, negative = inhibition, usual class: inhibitors. 340,000 compounds, 0.4% hits. AID 624288, 2012. gsp-mutant cells, cAMP HTRF, 30 min; control for the full effect not named in the record; active = falling curve of any shape with a large fitted effect; inconclusive = falling curve, mostly with a smaller effect; inactive = flat or rising curve; cell line not stated here;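 further: intracellular cAMP measured with PDE inhibitor Ro 20-1724 present during compound exposure; potency means the concentration at half of the fitted maximal effect; on the % scale 0 is the no-effect control and ±100 the full control effect; nearly all actives have a fitted effect of over 65% in size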
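HTRF cAMP measurement after 30 min RT detection following 30 min, 37C compound treatment alongside […] (added as 300 uM solution) in G418-selected cells seeded at 2000/well and grown 16–24 h.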
Sfp inh: qHTS Assay for Inhibitors of Bacillus subtilis Sfp phosphopantetheinyl transferase (PPTase) | 310,000 compounds, 3.5% hits | Potency, µM, inactives show max response, negative = inhibition, actives largely listed as inhibitors | 4'-phosphopantetheinyl transferase ffp (Bacillus subtilis), Q9F4F7 | Biochemical Sfp PPTase activity, qHTS; active means well fitted inhibition curve with a large enough effect; inconclusive means small, poorly fitted or top-dose-only effect, or another doubt; inactive means no such curve, though single readings can be large or run the other way;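 further: the enzyme is Sfp with the accession as filed and its product quenches rhodamine fluorescence; potency means the concentration at half of the fitted maximal effect; 0% = enzyme reaction without inhibitor and -100% = no enzyme wells; top concentration of the series not given in the record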
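After 15 min at room temperature with compound, 15 nM Sfp received 5 uM rhodamine-CoA plus 12.5 uM BHQ-2-ybbR (50 mM Hepes pH 7.6, 10 mM MgCl2). Rate came from the fluorescence difference over 30 min, ex 525/em 598 nm.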
ClpP mod: qHTS Assay for Activators of ClpP | ATP-dependent Clp protease proteolytic subunit (Bacillus subtilis (strain 168)), P80244 | AID 651965, 2013 | Potency, µM (highest dose often 57.5 µM), inactives show at the top dose activity change, negative = active | 340,000 compounds, 1.9% hits | purified B. subtilis ClpP, FRET peptide cleavage, 20 min; active = well fitted falling curve with a large enough effect; inconclusive = small, poorly fitted or top-dose-only effect; inactive = no such curve, though single readings can be large or run the other way; further: potency means the concentration at half of the fitted maximal effect; the source files actives as falling curves though it sought activators and does not explain the sign; nearly all actives have a fitted effect of over 65% in size; many hits overshoot -100%
Target sequence (P80244 whole entry, looked up): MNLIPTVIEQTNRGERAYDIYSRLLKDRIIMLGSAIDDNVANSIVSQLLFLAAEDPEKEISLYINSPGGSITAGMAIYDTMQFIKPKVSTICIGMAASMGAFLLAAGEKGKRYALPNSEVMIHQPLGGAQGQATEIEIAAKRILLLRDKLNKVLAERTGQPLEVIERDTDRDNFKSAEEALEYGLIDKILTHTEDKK
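Buffer: 100 mM Tris/HCl pH8, 100 mM KCl, 0.05% low protease BSA, 2.5% glycerol, 0.01% Tween-20. ClpP 10 microg/mL final; 20 min RT; delta FRET normalized to ADEP and DMSO controls.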
Menin-MLL FL inh: qHTS Assay for Inhibitors Targeting the Menin-MLL Interaction in MLL Related Leukemias: Competition With Fluorescein Labeled MLL-derived Peptide; Fluorescence polarization, fluorescein-MLL peptide displacement from menin; FP activity change, % at 61.4 µM; 290,000 tested, under 10 active; AID 1766, 2009; inconclusive = falling polarisation curve, or a change in total fluorescence; inactive = total fluorescence flat and polarisation flat or rising; no compound was filed as active; the % refers to the polarisation; negative = inhibition;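 further: % of control where 0% means no effect; inhibitors lower the polarisation; unlabelled MLL peptide was the positive control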
D2 ag: Beta-Arrestin HTS for Positive Allosteric Modulators of the Human D2 Dopamine Receptor: Agonists; activation, % (concentration not given with the values); DiscoveRx PathHunter D2 beta-arrestin, luminescence, 90 min; 100% = 57 uM dopamine signal; AID 624465, 2012; D(2) dopamine receptor (Homo sapiens), P14416; 360,000 compounds, 0.084% hits; in the data active = activation above about 40%; inconclusive = about 15% to 40%; inactive = below about 15%; further: the text of the record calls up to 30% inactive
Target sequence (P14416 whole entry, looked up): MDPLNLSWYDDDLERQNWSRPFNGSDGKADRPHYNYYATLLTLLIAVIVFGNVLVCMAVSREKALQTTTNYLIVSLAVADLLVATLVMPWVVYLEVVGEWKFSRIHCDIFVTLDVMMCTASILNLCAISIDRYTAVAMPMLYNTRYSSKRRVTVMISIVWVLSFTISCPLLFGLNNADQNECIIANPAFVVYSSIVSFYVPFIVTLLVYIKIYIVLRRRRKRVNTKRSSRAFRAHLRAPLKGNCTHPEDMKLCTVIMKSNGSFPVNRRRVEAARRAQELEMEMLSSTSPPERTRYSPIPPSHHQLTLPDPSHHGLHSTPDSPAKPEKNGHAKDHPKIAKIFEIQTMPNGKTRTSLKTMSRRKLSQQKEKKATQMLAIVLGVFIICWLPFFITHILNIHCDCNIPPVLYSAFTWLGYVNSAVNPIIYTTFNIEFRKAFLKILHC
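DiscoveRx PathHunter D2 beta-arrestin cells (2,100/well) attached overnight, then compound-stimulated 90 min at 37 C in HBSS/10 mM HEPES/0.1% Tween-20 buffer; beta-galactosidase complementation read by luminescence after 1 h at ambient temperature. Dopamine 57 uM final (EC100) as control.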
gsp ag: qHTS for Agonist of gsp, the Etiologic Mutation Responsible for Fibrous Dysplasia/McCune-Albright Syndrome: qHTS | 340,000 compounds, 0.13% hits | Potency, µM (doses to about 76.9 µM), inactives show top-dose activation (cAMP increase), usual class: activators | AID 624287, 2012 | gsp mutant cells, cAMP HTRF, 30 min; control for the full effect not named in the record; active = well fitted activation curve with a large enough effect; inconclusive = small, poorly fitted or top-dose-only effect, or another doubt; inactive = no such curve, though single readings can be large or run the other way; cell line not stated here;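 further: phosphodiesterase inhibitor Ro 20-1724 added with compounds to block cAMP breakdown; potency means the concentration at half of the fitted maximal effect; nearly all actives have a fitted effect of over 60% in size; about a fifth of the inactives were tested at one dose only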
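Cells in DMEM/10% FBS with G418 were pretreated with compounds in DMSO plus […] (300 uM stock) for 30 min at 37C. cAMP was measured by HTRF (cAMP-d2 plus anti-cAMP antibody-K) after 30 min at room temperature.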
Starred values were filed as active, the others as inactive; ? = inconclusive; / = not tested or not shown; [ ] = dose if it differs, or a comment.

SMILES | PINK1 modulator | gsp antagonist | Sfp inh | ClpP mod | Menin-MLL FL inh | D2 ag | gsp ag
Cc1ccc(S(=O)(=O)N(C)c2nc3ccccc3n3c(C(C)C)nnc23)cc1 | -1.2% | -8% | -6% | -28% | / | 1.4 | ?
C[C@@H]1CN([C@@H](C)CO)C(=O)CCCn2nncc2CO[C@@H]1CN(C)C(=O)c1ccc2ccn(C)c2c1 | -1.5% | / | / | -29% | / | -2.5 | 1%
CN(CC(=O)Nc1ccccc1C(=O)NC1CC1)Cc1cccs1 | -0.4% | 15% | / | -1.0% | / | -2.9 | -8%
CN(C)CCCNC(=O)c1ccc(Cl)c(S(=O)(=O)N(C)c2ccccc2)c1 | / | 11% | -25% | 0.4% | 2.9 | -1.5 | 1%
CCc1nn2cc(C(=O)c3cc(Cl)ccc3O)cnc2c1-c1ccc(F)cc1 | ? | ? | -5% | 0.3% | 2.1 | -3.9 | -6%[15.4 µM]
O=C(COc1ccc(F)cc1)Nc1cc(S(=O)(=O)N2CCCCC2)ccc1N1CCCCC1 | 3.2% | -5% | / | 16µM* | / | -2.9 | -85%[inhibitor]
CC(C)(CO)NS(=O)(=O)c1ccc2c(c1)C(=O)c1cc(S(=O)(=O)NC(C)(C)CO)ccc1-2 | 0.3% | 13% | 9% | 0.2% | -0.4 | -1.4 | 10%
CCOC(=O)C(=O)N(C)c1c(CC)nc2c(OCc3cc(Cl)cc(Cl)c3)cccn12 | 1.2% | / | / | -2.5% | / | -2.8 | /
O=C(CCN1CCCCCC1)Nc1ccc2c(c1)OCCO2 | -1.6% | 6% | -23% | 14µM* | 2.8 | 0.1 | -5%[15.4 µM]
COc1cc(CC(=O)Nc2sc3c(c2C(N)=O)CCCC3)cc(OC)c1OC | 11% | -11% | 1% | / | 4.5 | 1.0 | -9%[15.4 µM]
COc1ccc(CC(=O)O/N=C(\N)c2ccc(OC)cc2)cc1 | -0.7% | 0% | -7% | 8.0% | 2.3 | 0.3 | 0%[15.4 µM]
Cc1ccc(NC(=O)Cn2c(=O)cnc3ccccc32)cc1S(=O)(=O)N1CCOCC1 | -0.5% | 10% | / | -18% | / | -2.3 | -12%
C=CCn1c(SCC(=O)NC(=O)c2cccc([N+](=O)[O-])c2)nnc1-c1ccccc1F | -1.4% | 2% | -4% | -3.2% | 1.5 | -0.7 | -47%[inhibitor]
CN(Cc1cccs1)CC(O)COCc1ccco1 (configuration not stated) | -2.4% | -3% | 7% | -1.0% | 0.7 | -0.2 | 19%
O=C(O)Cc1sc(NCCc2ccccc2)nc1-c1ccc(F)cc1 | 1.9% | -18% | -6% | / | 0.6 | 0.5 | -17%[15.4 µM]
Nc1nc(NCCO)nc(NC2CCCCC2)c1[N+](=O)[O-] | -0.6% | 14% | 6% | 0.3% | 2.6 | 3.2 | 25%
CCC(=O)N1c2ccccc2-c2nnc(SC)nc2OC1c1ccc(OC)c(OC)c1 (configuration not stated) | 1.4% | 6% | 0% | -2.4% | -0.7 | 3.7 | ?
Oc1ccc(N=Nc2n[nH]c(-c3ccc(Cl)cc3)n2)cc1 | -2.2% | -12% | 12% | 1.5% | 8.6 | 0.0 | 0%
O=S(=O)(NCC(c1ccco1)N1CCCCC1)c1ccccc1C(F)(F)F (configuration not stated) | -0.2% | -9% | / | -0.7% | / | 1.6 | 15%
CCOC(=O)c1cn2nc(Oc3ccc(C)cc3)ccc2n1 | 0.7% | -15% | 4% | / | 5.4 | 4.8 | 11%[15.4 µM]
Cc1ccc(-n2nc3ccc(NC(=O)C(C)C)cc3n2)cc1 | -2.0% | 5% | -2% | 4.1% | 1.9 | -2.8 | ?
O=C(Cn1cc(C(F)(F)F)cc(Cl)c1=O)NCC1COc2ccccc2O1 (configuration not stated) | -0.7% | 5% | / | -1.5% | / | -1.8 | 9%
O=C(O)c1ccc(/C=N/Nc2nnnn2-c2ccccc2)cc1 | 10% | -24% | 11% | -0.5% | 5.2 | -5.7 | 1%[15.4 µM]
C=COC(=O)CSc1nc(-c2cccs2)ccc1C#N | 4.8%[38.3 µM] | 7% | ? | 28µM* | 18 | 1.7 | 48%
CCOC(=O)N1CCN(C(=O)c2ccc(N(C)S(C)(=O)=O)cc2)CC1 | 0.3% | 4% | 14% | 2.2% | -1.6 | -0.1 | -3%
Following part
SMILES | PINK1 modulator | gsp antagonist | Sfp inh | ClpP mod | Menin-MLL FL inh | D2 ag | gsp ag
COc1ccccc1NC(=O)C1C2C=CC(C2)C1C(=O)NCc1cccnc1 (configuration not stated) | 4.2% | 9% | 22% | -1.2% | -0.9 | -6.0 | -3%
Cc1cnc(NC(=O)C2CCC(C(C)(C)C)CC2)s1 (configuration not stated) | 8.1% | -16% | 23% | / | 1.3 | 0.5 | 21%[15.4 µM]
c1ccc2sc(Cc3nnc4n3CCCCC4)nc2c1 | 3.9%[38.3 µM] | 8% | 16% | 0.3% | -0.4 | 2.4 | 19%
CCCS(=O)(=O)NC(=O)C1(C)CCCN(C(=O)c2ccc(F)cc2Cl)C1 (configuration not stated) | -1.2% | / | / | 1.0% | / | -1.2 | /
COC(=O)c1cc(NC(=S)Nc2cc(Cl)cc(Cl)c2)cc(C(=O)OC)c1 | ? | -22% | -2% | ? | 4.4 | -3.6 | -1%
CCOC(=O)c1ccc(N2C=C(C(=O)OC)C(c3ccc(OC)c(O)c3)C(C(=O)OC)=C2)cc1 | -0.1% | ? | -6% | -11% | 1.3 | 0.1 | ?
Cc1[nH]c(-c2ccc(F)cc2)cc1C(=O)N1CCN(c2ccccc2F)CC1 | 11% | -14% | -2% | -0.1% | -7.2 | -1.4 | -22%[15.4 µM]
CCc1nnc2n1N=C(c1ccc(-c3cc(Cl)ccc3Cl)o1)CS2 | 4.3% | 1% | -4% | 1.5% | 5.3 | -1.2 | -22%
C=CCn1c(SCC(=O)NCc2ccco2)nnc1C1CCCCC1 | -1.3% | 1% | / | 1.8% | / | -2.7 | 7%
Cc1cc(-n2c(C)c3c(C)nnc(C)c3c2C)ccc1N | -0.7% | 3% | -6% | / | 16 | -1.9 | 4%[15.4 µM]
Cc1cc(C)c2cc(CN(CCN(C)C)C(=O)Nc3ccccc3Cl)c(=O)[nH]c2c1 | -2.3% | 9% | -8% | -30% | 4.3 | 4.6 | -11%
Clc1ccc(N2CCOCC2)nn1 | -1.2% | / | 16% | / | -1.7 | -4.0 | 13%[15.4 µM]
Cc1cccn2c(=O)c3cc(C(=O)NCCc4ccccc4)c(=N)n(CC4CCCO4)c3nc12 (configuration not stated) | 1.1% | 11% | 3% | / | ? | 1.7 | -1%
O=[N+]([O-])c1cccc(-c2nnc(CNC3CC3)o2)c1 | 2.2% | 0% | -5% | / | -2.9 | 5.4 | -14%[15.4 µM]
COCCn1c(-c2ccc(C)cc2)nc2oc3cc(OC)ccc3c(=O)c2c1=O | 0.6% | -16% | -5% | -2.5% | 5.7 | -4.7 | 10%
CC(C)(C)N(Cc1cc2ccccc2[nH]c1=O)C(=O)c1cccc([N+](=O)[O-])c1 | 1.8% | -8% | 9% | -3.5% | 2.9 | 1.3 | -21%
CNC(=O)COC(=O)c1ccccc1NC(=O)c1ccco1 | 0.2% | -13% | 4% | -2.9% | 1.1 | -3.3 | 6%
O=C(O)c1nn(CCOc2c(Cl)cccc2Cl)c(=O)c2ccccc12 | 0.3% | -4% | 17% | / | 1.4 | 3.0 | 2%
O=C(N=C1SC2CS(=O)(=O)CC2N1c1ccc(Br)cc1F)C1CC1 (configuration not stated) | 3.1% | -5% | 5% | -0.3% | / | -3.9 | 7%
CC1CCC(NC(=O)c2cccc(S(=O)(=O)NCc3ccccc3)c2)CC1 (configuration not stated) | -3.2% | -6% | / | ? | / | -1.0 | -11%
O=C(NCCCN1CCOCC1)C(=O)N/N=C/c1ccccc1Cl | 4.6% | 4% | 11% | 0.3% | -2.3 | -6.0 | 3%
O=C(CCC1CCCN(C(=O)c2ccsc2)C1)NCc1ccc(F)c(F)c1 (configuration not stated) | 2.5% | 6% | 16% | 1.8% | -1.1 | -2.8 | -9%[15.4 µM]
C=CCN(CC=C)Cc1nc(N)nc(Nc2ccccc2C)n1 | 0.9% | 10% | 20% | -1.9% | -6.5 | 9.5 | 0%
CC(C)[C@H](NC(=O)C1(c2ccccc2)CCN(C(=O)OC(C)(C)C)CC1)C(=O)O | -10%[38.3 µM] | -3% | 30%[activator] | -3.3% | -1.6 | -5.2 | 15%
Cc1cc(N2CCC(C(=O)NCC3CC3)CC2)nc(-c2ccccc2)n1 | -0.6% | -12% | 7% | -1.1% | 0.5 | 0.8 | 14%
(further entries)
SMILES | PINK1 modulator | gsp antagonist | Sfp inh | ClpP mod | Menin-MLL FL inh | D2 ag | gsp ag
Fc1ccc(C2CC(c3ccc(F)cc3)n3ncnc3N2)cc1 (configuration not stated) | -15%[38.3 µM] | 12% | -2% | -2.7% | -1.1 | -1.0 | 2%
Cc1noc(C)c1COC(=O)CCc1ccc(S(=O)(=O)N2CCCCC2)cc1 | 1.5% | -18% | 8% | 0.0% | 2.1 | 1.2 | -62%[inhibitor]
Nc1ccc(N=Nc2ccccc2Cl)c(N)n1 | -1.4% | -9% | -10% | -0.9% | -1.3 | -2.3 | -10%
N#CCCCN1C(=O)C(=C(C#N)C#N)c2ccccc21 | 1.2% | -15% | -18% | -0.1% | 0.5 | -0.1 | -19%
Cc1ccccc1N1CC(C(=O)Nc2ccncc2)CC1=O (configuration not stated) | 0.0% | 13% | / | / | / | 5.7 | -16%[15.4 µM]
COc1ccc(/C=C(\NC(=O)c2ccccc2)C(=O)N/N=C/c2sccc2C)cc1 | -0.8% | -4% | 11% | -15% | 4.3 | 1.0 | 9%[15.4 µM]
Cc1cc(=O)[nH]c(NN=C(CC(C)C)CC(C)C)n1 | 2.5% | -7% | 56µM* | -1.3% | -1.3 | 3.0 | -68%[inhibitor]
COC(=O)N(C)c1ccccc1C(=O)N1CCOCC1 | 1.3% | 6% | 9% | -1.3% | 2.9 | -1.8 | -7%

Bioassay records as filed in PubChem.
